Screens from PubChem.
Vaccinia inh = blocks a specific stage of Vaccinia orthopoxvirus infection, primary screen, cell-based, single point; activity change (mCherry), % (concentration not given with the values); Vaccinia-infected cells, mCherry/Venus stage reporter fluorescence; active compounds read low; some inactives read as strong as hits; actives 0.01% (n = 89,000);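 active means mCherry past -33% and 40 or more points under the early reporter, replicates agreeing; inconclusive means past -33% without that gap or agreement; tested in A549 cells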;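 further: scaled between vehicle wells and reference inhibitor wells; 23 nL library stock went into each well; one replicate is shown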
Vaccinia inh Venus = also measured in Vaccinia inh; calls as there; activity change (Venus), %; measured here: Venus reporter, other viral stage;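 negative = less Venus signal; first of two replicates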
* = called active by the depositor; ? = inconclusive; / = no result given.

SMILES	Vaccinia inh	Vaccinia inh Venus
O=C(NC1CCC1)[C@H]1[C@H](CO)[C@H]2Cn3c(ccc(C4=CCCC4)c3=O)[C@H]2N1C(=O)C1CCCC1	7	5
O=C(N[C@H]1C=C[C@H](CC(=O)N2CCCCC2)O[C@H]1CO)c1ccccn1	-5	10
CO[C@H]1CC[C@@H]2CCOc3c(C#N)cccc3C(=O)N(C)C[C@@H](C)C(=O)N(C)C[C@H]1O2	12	5
CO[C@@H]1CN(C)C(=O)c2cc(NS(C)(=O)=O)ccc2OC[C@H](C)N(Cc2nccs2)C[C@@H]1C	18	10
C[C@H]1CCCCO[C@@H](CN(C)C(=O)Nc2ccc3c(c2)OCO3)[C@@H](C)CN([C@@H](C)CO)C(=O)c2cc(N(C)C)ccc2O1	-28	-19
C[C@@H]1CN([C@H](C)CO)C(=O)c2cc(NS(=O)(=O)c3ccc(F)cc3)ccc2O[C@H]1CN(C)S(=O)(=O)c1cccs1	13	4
CCCNC(=O)N1CC2(C1)[C@@H](c1ccccc1)[C@H](CO)N2Cc1ccc(F)cc1	-7	-4
CCCNC(=O)[C@H]1[C@H](CO)[C@H]2Cn3c(ccc(-c4cccc(F)c4)c3=O)[C@H]2N1C(=O)CC	24	11
COC(=O)C[C@H]1C[C@H]2c3cc(NS(=O)(=O)c4cccc(OC)c4)ccc3O[C@H]2[C@@H](CO)O1	12	13
CC(C)NC(=O)N(C)C[C@H]1Oc2cc(C#CCN(C)C)ccc2S(=O)(=O)N([C@@H](C)CO)C[C@@H]1C	3	-4
C[C@H](CO)N1C[C@H](C)[C@@H](CN(C)C(=O)Nc2ccc3c(c2)OCO3)Oc2ccc(NC(=O)c3ccncc3)cc2CC1=O	-7	2
CO[C@H](CN(C)C(=O)C1CCOCC1)[C@@H](C)CN([C@@H](C)CO)S(=O)(=O)c1ccccc1	11	16
Cc1cc(C(=O)Nc2cccc3c2O[C@H](CN(C)C(=O)Nc2ccc4c(c2)OCO4)[C@H](C)CN([C@@H](C)CO)C3=O)n(C)n1	20	-3
COCC(=O)N(C)C[C@@H]1Oc2ncc(C#Cc3ccc(F)cc3)cc2C(=O)N([C@@H](C)CO)C[C@H]1C	18	-5
CCS(=O)(=O)N[C@H]1C=C[C@H](CC(=O)N2CCCCC2)O[C@H]1CO	4	7
CCC(=O)Nc1ccc2c(c1)OC[C@@H](C)N(C(C)=O)C[C@@H](C)[C@H](OC)CN(C)C2=O	5	6
COc1ccc(NC(=O)N(C)C[C@H]2Oc3ccc(NS(=O)(=O)c4cn(C)cn4)cc3CC(=O)N([C@H](C)CO)C[C@H]2C)cc1	12	13
CCNC(=O)C[C@@H]1CC[C@@H]2[C@@H](COc3ccc(NC(=O)Nc4ccccc4F)cc3C(=O)N2C)O1	0	-1
CN1C(=O)c2cc(NC(=O)c3cc(F)cc(F)c3)ccc2OC[C@@H]2O[C@H](CC(=O)O)CC[C@H]21	11	8
O=C(C[C@@H]1C=C[C@@H](NC(=O)CN2CCOCC2)[C@@H](CO)O1)NC1CCC1	6	3
C[C@@H]1CCCCO[C@@H](CN(C)Cc2ccc(C(=O)O)cc2)[C@H](C)CN([C@@H](C)CO)C(=O)c2cc(NC(=O)Nc3ccc(C(F)(F)F)cc3)ccc2O1	12	6
C[C@@H](NC(=O)C[C@@H]1CC[C@@H](NC(=O)Nc2ccc3c(c2)OCO3)[C@H](CO)O1)c1ccccc1	-5	2
C[C@@H]1CN([C@H](C)CO)S(=O)(=O)c2ccc(C3=CCCCC3)cc2O[C@@H]1CN(C)Cc1ccccn1	?	/
CN1C(=O)c2cc(NC(=O)Cc3ccccc3)ccc2OC[C@@H]2O[C@@H](CC(=O)NCC3CC3)CC[C@@H]21	1	5
O=C(C[C@@H]1CC[C@@H]2[C@H](COC[C@H](O)CN2C(=O)c2ccccc2F)O1)N1CCN(c2ccccc2)CC1	-7	0
Cc1ccc(S(=O)(=O)N[C@H]2C=C[C@@H](CC(=O)N3CCN(c4ccccc4)CC3)O[C@H]2CO)cc1	-19	-10
CCCNC(=O)N1C[C@@H](O)COC[C@@H]2O[C@@H](CC(=O)N3CCCCC3)CC[C@H]21	10	5
COc1ccc(NC(=O)N(C)C[C@H]2OCCCC[C@@H](C)Oc3ccc(NC(=O)C4CCCCC4)cc3C(=O)N([C@@H](C)CO)C[C@@H]2C)cc1	-30	-20
CCNC(=O)Nc1ccc2c(c1)C(=O)N(C)[C@@H]1CC[C@@H](CC(=O)NC3CCCCC3)O[C@H]1CO2	10	4
C=CC[C@]1(C(=O)N2CCOCC2)COC(c2ccc(OCCCO)cc2)=N1	4	-12
C[C@H]1CN([C@@H](C)CO)S(=O)(=O)c2ccc(C#CC(C)(C)O)cc2O[C@@H]1CN(C)Cc1ccc(F)cc1	?	/
CO[C@@H]1CN(C)C(=O)c2ccc(NC(=O)C3CC3)cc2OC[C@H](C)N(C(=O)C2CCCCC2)C[C@H]1C	5	5
C[C@H]1CN([C@@H](C)CO)C(=O)c2cc(NC(=O)CCC(F)(F)F)ccc2O[C@@H]1CN(C)Cc1ccccc1	7	2
CO[C@H]1CN(C)C(=O)c2cc(NS(=O)(=O)CC(F)(F)F)ccc2OC[C@H](C)N(Cc2cccnc2)C[C@H]1C	8	-1
OC[C@H]1[C@@H](c2ccc(-c3ccc(F)cc3)cc2)[C@H]2CN(Cc3ccncc3)CCCCN21	-14	-14
Cc1noc(C)c1NC(=O)Nc1ccc2c(c1)C(=O)N([C@H](C)CO)C[C@H](C)[C@H](CN(C)C(=O)CCCN(C)C)OCCCC[C@@H](C)O2	25	17
C[C@@H]1CCCCO[C@@H](CN(C)C)[C@@H](C)CN([C@H](C)CO)C(=O)c2cc(NS(=O)(=O)c3ccccc3)ccc2O1	6	3
C[C@H](NC(=O)C[C@H]1CC[C@@H]2[C@@H](COc3ccc(NS(=O)(=O)c4ccc(Cl)cc4)cc3C(=O)N2C)O1)c1ccccc1	?	/
COc1ccc2c3c(n(C)c2c1)[C@H](CO)N(C(=O)Cc1ccccc1)CC31CN(C(C)=O)C1	28	16
CNC[C@@H]1Oc2ccc(NC(=O)CCC(F)(F)F)cc2C(=O)N([C@H](C)CO)C[C@H]1C	18	6
CO[C@H]1CN(C)C(=O)c2cc(NC(=O)Nc3cccc(F)c3)ccc2OC[C@H](C)N(C(C)=O)C[C@H]1C	9	8
CN(C)C(=O)C[C@@H]1CC[C@@H]2[C@H](COc3ccc(NC(=O)C4CC4)cc3C(=O)N2C)O1	12	7
CC(=O)N1CCCCN2[C@H](CO)[C@H](c3ccc(-c4ccc(C)cc4)cc3)[C@H]2C1	-13	-17
O=C(CN1CCOCC1)N[C@H]1CC[C@@H](CCNC(=O)Nc2cc(F)ccc2F)O[C@H]1CO	-5	-2
C[C@H](CO)N1C[C@H](C)[C@H](CN(C)C(=O)C2CCCCC2)OCCCC[C@H](C)Oc2ccc(NC(=O)CCC(F)(F)F)cc2C1=O	-29	-23
O=C(N[C@@H]1CC[C@@H](CCNS(=O)(=O)c2ccc(F)cc2)O[C@H]1CO)C1CCCC1	-7	-5
CO[C@@H]1CN(C)C(=O)c2cc(NC(=O)C3CCCCC3)ccc2OC[C@H](C)N(Cc2cccnc2)C[C@H]1C	-18	-19
COc1cccc(S(=O)(=O)N[C@H]2CC[C@@H](CC(=O)NC3Cc4ccccc4C3)O[C@@H]2CO)c1	-5	-6

Arranged by length of the SMILES (smallest number first): part of the list above
SMILES	Vaccinia inh	Vaccinia inh Venus
CC(=O)N1CCCCN2[C@H](CO)[C@H](c3ccc(-c4ccc(C)cc4)cc3)[C@H]2C1	-13	-17
O=C(CN1CCOCC1)N[C@H]1CC[C@@H](CCNC(=O)Nc2cc(F)ccc2F)O[C@H]1CO	-5	-2
O=C(N[C@@H]1CC[C@@H](CCNS(=O)(=O)c2ccc(F)cc2)O[C@H]1CO)C1CCCC1	-7	-5
COc1ccc2c3c(n(C)c2c1)[C@H](CO)N(C(=O)Cc1ccccc1)CC31CN(C(C)=O)C1	28	16
CN(C)C(=O)C[C@@H]1CC[C@@H]2[C@H](COc3ccc(NC(=O)C4CC4)cc3C(=O)N2C)O1	12	7
COc1cccc(S(=O)(=O)N[C@H]2CC[C@@H](CC(=O)NC3Cc4ccccc4C3)O[C@@H]2CO)c1	-5	-6
CO[C@@H]1CN(C)C(=O)c2cc(NC(=O)C3CCCCC3)ccc2OC[C@H](C)N(Cc2cccnc2)C[C@H]1C	-18	-19
C[C@@H]1CCCCO[C@@H](CN(C)C)[C@@H](C)CN([C@H](C)CO)C(=O)c2cc(NS(=O)(=O)c3ccccc3)ccc2O1	6	3
C[C@H](NC(=O)C[C@H]1CC[C@@H]2[C@@H](COc3ccc(NS(=O)(=O)c4ccc(Cl)cc4)cc3C(=O)N2C)O1)c1ccccc1	?	/
Cc1noc(C)c1NC(=O)Nc1ccc2c(c1)C(=O)N([C@H](C)CO)C[C@H](C)[C@H](CN(C)C(=O)CCCN(C)C)OCCCC[C@@H](C)O2	25	17

Next section.
SMILES	Vaccinia inh	Vaccinia inh Venus
C[C@@H]1CN([C@@H](C)CO)C(=O)c2cc(NC(=O)NC3CCCCC3)ccc2O[C@@H](C)CCCCO[C@@H]1CN(C)C(=O)c1ccccc1	8	0
CN1CCN(C(=O)C[C@H]2CC[C@@H]3[C@H](COC[C@H](O)CN3S(=O)(=O)c3cccc(Cl)c3)O2)CC1	5	4
C[C@@H]1CN([C@@H](C)CO)C(=O)c2cc(N(C)C)ccc2O[C@@H]1CN(C)C	7	6
C[C@@H]1CN([C@@H](C)CO)C(=O)c2cc(C#CCC3CCCC3)cnc2O[C@H]1CN(C)C(=O)c1cnccn1	-8	-7
CC(=O)N(C)C[C@H]1[C@H](c2ccccc2)[C@@H](CO)N1C(=O)C1CCC1	17	13
COCC#Cc1ccc([C@H]2[C@H]3CN(C(=O)c4cccnc4)CC(=O)N3[C@H]2CO)cc1	26	17
O=C(Nc1cc(F)ccc1F)N1CCCCN2[C@H](C1)[C@@H](c1ccc(-c3ccccc3)cc1)[C@@H]2CO	?	/
C[C@@H]1CN([C@@H](C)CO)C(=O)c2cc(NC(=O)CCC(F)(F)F)ccc2O[C@H]1CN(C)S(=O)(=O)c1ccc(Cl)cc1	-12	-7
CC(C)CC#Cc1ccc2c(c1)O[C@@H](CN(C)C(=O)C1CCC1)[C@H](C)CN([C@@H](C)CO)S2(=O)=O	?	/
CC(=O)N(C)C[C@H]1Oc2ncc(C#Cc3cccnc3)cc2C(=O)N([C@@H](C)CO)C[C@@H]1C	8	9
Cc1ccccc1-c1ccc2c(c1)O[C@@H](CN(C)C(=O)C1CC1)[C@H](C)CN([C@H](C)CO)S2(=O)=O	-17	-19
Cc1noc(C)c1S(=O)(=O)Nc1cccc2c1O[C@H](CN(C)Cc1ccc(Cl)c(Cl)c1)[C@H](C)CN([C@H](C)CO)C2=O	12	1
C[C@@H]1CN([C@H](C)CO)C(=O)Cc2cc(NS(C)(=O)=O)ccc2O[C@H]1CN(C)S(=O)(=O)c1ccc(F)cc1	30	22
CC(C)CC#Cc1cnc2c(c1)C(=O)N([C@H](C)CO)C[C@H](C)[C@H](CN(C)Cc1ccc(F)cc1)O2	-25	-19
CCCNC(=O)N(C)C[C@H]1Oc2ncc(C3=CCCCC3)cc2C(=O)N([C@@H](C)CO)C[C@H]1C	-7	-8
C[C@H](CO)N1C[C@H](C)[C@@H](CN(C)Cc2ccc(Oc3ccccc3)cc2)Oc2c(NS(=O)(=O)c3cn(C)cn3)cccc2C1=O	15	11
Cc1ccc(S(=O)(=O)N(C)C[C@@H]2Oc3c(NC(=O)C4CC4)cccc3C(=O)N([C@H](C)CO)C[C@H]2C)cc1	3	5
C[C@@H](NC(=O)C[C@@H]1CC[C@@H](NC(=O)Nc2ccc3c(c2)OCO3)[C@@H](CO)O1)c1ccccc1	-4	5
COc1ccccc1-c1cnc2c(c1)C(=O)N([C@H](C)CO)C[C@@H](C)[C@H](CN(C)Cc1ccc(F)cc1)O2	?	/
CCCN(C)C[C@@H]1OCCCC[C@@H](C)Oc2ccc(NC(=O)Cc3ccccc3)cc2C(=O)N([C@H](C)CO)C[C@@H]1C	-2	2
C/C=C/c1cnc2c(c1)C(=O)N([C@@H](C)CO)C[C@@H](C)[C@@H](CN(C)C(=O)Nc1cccc(OC)c1)O2	-5	-6
COc1cccc(-c2ccc3c(c2)[C@@H]2[C@@H](CCN2S(=O)(=O)c2ccccc2OC)[C@H](CO)N3C)c1	?	/
COc1ccc2c3c(n(C)c2c1)[C@@H](CO)N(C(=O)Cc1ccccn1)CC31CCN(CC2CCCC2)CC1	-14	-5
CO[C@H]1CN(C)C(=O)c2cc(NS(C)(=O)=O)ccc2OC[C@@H](C)N(C(=O)c2ccc3c(c2)OCO3)C[C@@H]1C	19	6
C[C@@H]1CN([C@@H](C)CO)C(=O)c2cc(NS(C)(=O)=O)ccc2O[C@@H](C)CCCCO[C@H]1CN(C)Cc1ccc(C(F)(F)F)cc1	?	/
O=C(C1=C[C@@H](C2CCCCC2)C[C@@H](OCc2ccc(CO)cc2)O1)N1CCOCC1	23	6
C[C@H]1CN([C@@H](C)CO)C(=O)c2cc(C#Cc3ccncc3)cnc2O[C@H]1CN(C)S(=O)(=O)c1ccccc1F	-4	2
CO[C@@H]1CN(C)C(=O)c2ccc(NS(=O)(=O)c3ccc(Cl)cc3)cc2OC[C@@H](C)N(C)C[C@H]1C	1	4
CO[C@@H]1CN(C)C(=O)c2ccc(NC(=O)C3CC3)cc2OC[C@H](C)N(CCC(F)(F)F)C[C@H]1C	2	8
CCC(=O)Nc1ccc2c(c1)C(=O)N(C)C[C@H](OC)[C@@H](C)CN(C(=O)Cc1ccccn1)[C@H](C)CO2	14	20
O=C(C[C@H]1CC[C@H]2[C@@H](COC[C@@H](O)CN2C(=O)c2ccccc2)O1)NC1Cc2ccccc2C1	15	9
CCC(=O)N1CC(=O)N2[C@H](C1)[C@H](c1ccc(C#CC3CCCCC3)cc1)[C@@H]2CO	?	/
CCC(=O)N1CC[C@@H]2[C@@H](CO)Nc3ccc(C#Cc4cccnc4)cc3[C@@H]21	25	13

Not all compounds are listed; rates above refer to the full screens.
